Compound activity (PubChem BioAssay)
PINK1 expr mod: modulators of PINK1 expression; PINK1 immunofluorescence, high-content cytometry, 24 h; Potency, µM (titrated, usually from 76.6 µM), without a hit: at the top dose activation (PINK1 increase), usual class: activators; AID 624263; actives 0.2% (n = 410,000); active = well fitted activation curve with a large enough effect; inconclusive = small, poorly fitted or top-dose-only effect; inactive = flat fitted curve, though single readings scatter; cell line not stated here;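 further: % of control where 0% means no effect; nearly all actives have a fitted effect of over 65% in size; a mitochondrial uncoupler was the plate control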
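A stable cell line was treated with compounds at 5 concentrations for 24 hours, with CCCP as control. PINK1 levels and mitochondrial localization were measured by immunofluorescence with mitochondrial, cell and nuclear markers after fixation, read by laser-scanning cytometry.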
An asterisk follows results filed as active; ? = inconclusive. Potency means the concentration at half of the fitted maximal effect.

SMILES	PINK1 expr mod
Cc1cccc(N2CCN(C(=O)CS(=O)(=O)c3cccc4nsnc34)CC2C)c1 (stereo unspecified)	-4.0%
COc1cc(OC)cc(-c2nc(-c3cccc(C)c3)no2)c1	2.5%
Cc1ccc(Cn2cnc3nc4c(cc3c2=O)CC(C)CC4)cc1 (stereo unspecified)	0.7%
Cc1nn(C(=O)COc2ccc(Cl)cc2)c(C)c1Sc1ccccc1	1.0%
CCOC(=O)c1c(NC(=O)c2cc(Cl)ccc2Cl)sc2c1CCCC2	-0.8%
Cc1ccc2nc(N3CCC(C(=O)N4CCN(c5cccc(C)c5C)CC4)CC3)[nH]c2c1	1.0%
O=S(=O)(NCCc1csc(-c2ccc(F)cc2)n1)c1ccc(F)cc1F	3.7%
CN(CC(=O)Nc1cccc(Cl)c1)S(=O)(=O)c1ccc2[nH]c3c(c2c1)CCCC3	?
CCN1CCN(CCCNC(=O)c2cnn(-c3ccccc3Cl)c2C2CCN(C(=O)OC(C)(C)C)CC2)CC1	-1.2%
CCc1ccccc1NC(=O)C1CCN(C(=O)N2CC(C)Oc3ccc(Cl)cc32)CC1 (stereo unspecified)	-0.4%
O=C(CN1C(=O)c2ccccc2Sc2ccc(C(=O)N3CCOCC3)cc21)Nc1ccc(Cl)cc1F	1.8%
Cc1cccc(N2CCN(c3ncnc4onc(C)c34)CC2)c1C	-4.9%
CC(C)(C)C(=O)Nc1nc2nc(-c3ccccc3)cc(=O)n2[nH]1	-0.8%
CCOC(=O)c1c(NC(=O)C(C)Oc2ccc(Cl)c(C)c2)sc2c1CCCC2 (stereo unspecified)	4.3%
CCc1cc(C(=O)N2CCOc3ccc(CN4CCN(Cc5ccccn5)CC4)cc3C2)no1	-1.3%
CCCS(=O)(=O)NCCc1sc2nc(-c3ccc(Cl)cc3)nn2c1C	2.0%
O=C(Cn1c(=O)n(Cc2ccc(C(=O)NCc3ccccc3Cl)cc2)c(=O)c2ccccc21)Nc1ccc(F)cc1	2.5%
Cc1cc(C)cc(Nc2ncnc3c2nc2n3CCCC2)c1	15.3%
Cc1ccc(NC(=O)c2ccc3oc(=O)c(S(=O)(=O)c4ccccc4)cc3c2)cc1C	0.7%
COc1ccc(C(=O)C[n+]2ccc(Cl)c3ccc(Cl)cc32)cc1	-0.3%
CC1=C(C(=O)Nc2ccccc2Br)C2(CCC(C)CC2)OC1=O (stereo unspecified)	0.1%
Cc1ccccc1-n1c(SCC(=O)Nc2ccc(Cl)cc2Cl)nc(O)cc1=O	-0.6%
CCC(C(=O)Nc1cc(OC)ccc1OC)n1c(C)c2cnn(-c3ccccc3)c(=O)c2c1C (stereo unspecified)	-0.7%
Cn1ccc2cc(S(=O)(=O)N3CCCC(C(=O)NCc4ccccc4)C3)ccc21 (stereo unspecified)	1.6%
CCOc1ccc(CCNC(=O)c2ccc3c(c2)c(C)c(C)n3C)cc1	-1.6%
Cc1oc(-c2ccccc2Cl)nc1CS(=O)(=O)CC(=O)NCc1ccc(F)cc1	2.7%
Cc1ccc(NC(=O)C2CCCN(S(=O)(=O)c3c(C)n[nH]c3C)C2)cc1Cl (stereo unspecified)	3.4%
O=C(c1ccc2c(c1)N(Cc1ccccc1)C(=O)c1ccccc1S2(=O)=O)N1CCN(c2ccccn2)CC1	0.8%
Cc1ccc(CNc2nccn(-c3cc(C)cc(C)c3)c2=O)cc1	0.7%
COCCCNC(=O)Cn1cnc2sc(C)c(S(=O)(=O)N3CCC(C)CC3)c2c1=O	1.9%
CCC(=O)N1CCc2cc(Br)cc(S(=O)(=O)NCCc3ccc(OC)c(OC)c3)c21	1.5%
COc1ccc(CC(=O)Nc2c(C(=O)Nc3ccccc3F)oc3ccccc23)cc1	0.5%
O=C(Cn1c(=O)nc(-c2ccccc2)c2ccccc21)NCCc1ccccc1	-0.7%
CC1=C(C(N)=O)C(c2cccc(C)c2)n2nc(-c3ccc(Cl)cc3)nc2N1 (stereo unspecified)	-0.1%
COc1ccc(OC(C)c2nc3ccccc3[nH]2)cc1 (stereo unspecified)	2.2%
CCOC(=O)c1ccc(NC(=O)CCC(=O)N2CCSc3ccccc32)cc1	1.1%
CC(C)c1ccc(NC(=O)c2ccc3c(c2)CCN3S(=O)(=O)c2ccccc2)cc1	-0.7%
Cc1cccc(N2CCN(c3nc4ccccc4c4nc(-c5ccccc5)nn34)CC2)c1C	3.6%
CCn1nc(C)c2c(-c3ccccc3)cc(=O)n(C(C)C(=O)NCCC(C)C)c21 (stereo unspecified)	0.7%
Cc1ccccc1Cc1c(C)nc2nc(SCC(=O)NC(C)c3ccccc3)nn2c1C (stereo unspecified)	-1.4%
CCCN(CCC)CCCNC(=O)Cn1ncc2c3ccccc3n(Cc3ccccc3F)c2c1=O	-0.1%
CCC(Oc1ccccc1)C(=O)Nc1ccc2oc(-c3ccc(OC)cc3)nc2c1 (stereo unspecified)	4.5%
CC[n+]1c2ccccc2cc2ccccc21	2.0%
COc1cc(C(CC(=O)NCc2ccccc2Cl)N2Cc3ccccc3C2=O)cc(OC)c1OC (stereo unspecified)	-3.5%
COC(=O)c1ccccc1NC(=O)CCS(=O)(=O)c1nc(-c2ccc3c(c2)OCO3)cc(C(F)(F)F)n1	1.7%
Clc1cccc(-n2ncc3c(NC4CCCCCC4)ncnc32)c1	?
O=C(CCn1nc(-c2ccc(Cl)cc2)ccc1=O)NCCc1ccccc1	-5.6%
COc1cccc(NC(=O)c2csnn2)c1	-2.5%
COc1cc(C2Nc3ccccc3-c3nnc(SCc4ccc(Cl)cc4)nc3O2)ccc1OCC(=O)O (stereo unspecified)	14.2%
CC(C)Oc1ccc(C(=O)Nc2c(C(=O)Nc3cccc(F)c3)oc3ccccc23)cc1	0.9%
CS(=O)(=O)N1CCc2cc(C(=O)Nc3ccc(S(N)(=O)=O)cc3)ccc21	1.5%
O=C(CNC(=O)c1ccc(Cl)cc1)OCc1cc(=O)n2ccsc2n1	1.1%
O=C(NC1CCN(Cc2ccccc2)CC1)c1ccc(Cn2c(=O)c3ccccc3n(Cc3ccc(Cl)cc3)c2=O)cc1	0.2%
O=C(COc1ccc(Br)cc1Br)Nc1ccc(S(=O)(=O)Nc2ncccn2)cc1	-1.0%
COc1cc(C(=O)Nc2nnc(CC(C)(C)C)s2)cc(OC)c1OC	3.2%
CC(=O)c1cccc(NC(=O)N2CCC(CN3CCCCC3)CC2)c1	-0.1%
Cc1cc(O)c(C(c2ccc(F)cc2)N2CCCCC2)c(=O)n1Cc1ccco1 (stereo unspecified)	1.1%
CCc1ccc(C(=O)CC2(O)C(=O)N(CCc3ccccc3)c3ccc(Cl)cc32)cc1 (stereo unspecified)	14.2%
Cc1cc(C)c(S(=O)(=O)NCCc2cc3cc(C)c(C)cc3[nH]c2=O)c(C)c1	-1.7%
CCCCc1ccc(NC(=O)COC(=O)c2ccccc2OCC(=O)Nc2ccc(Br)cc2)cc1	-1.1%
Continuation:
SMILES	PINK1 expr mod
CCC(Sc1nc2c(sc3ccccc32)c(=O)n1CCc1ccccc1)C(=O)N(CC)CC (stereo unspecified)	3.0%
CCN(CC)c1ccc(NC(=O)CN2CCN(c3ccccc3OC)CC2)cc1	-0.1%
O=S(=O)(NCc1ccc(F)cc1)c1ccc(N2CCCCS2(=O)=O)cc1	-1.4%
CCCCCn1c(=O)[nH]c2cc(C(=O)N3CCN(c4cccc(C)c4)C(C)C3)ccc2c1=O (stereo unspecified)	2.0%
COc1ccc(C2=C(C)C(=NCCCN3CCN(c4cc(Cl)ccc4C)CC3)NS2(=O)=O)cc1	-0.4%
CCOc1ccc(CCNC(=O)c2cnc3sc(N(CC)CC)nn3c2=O)cc1OCC	0.3%
Cc1oc(-c2ccccc2F)nc1CS(=O)(=O)CC(=O)NCCc1ccc(Cl)cc1	0.9%
CN(C)c1ccc(C2CCc3ccccc3N2C(=O)c2ccccc2)cc1 (stereo unspecified)	2.2%
CCOC(=O)c1c(C)[nH]c(CCC(=O)NCc2cc(Br)ccc2OC)c1C	-0.8%
CCn1c(=O)cc(OCC(=O)NCc2ccccc2Cl)c2ccccc21	1.3%
CCOC(=O)N1CCc2c(sc(NCc3cc(OC)c(OC)cc3OC)c2C(=O)Nc2ccc(OCC)cc2)C1	0.8%
CCOc1ccccc1CNC(=O)c1ccc2c(c1)sc1nc(-c3ccccc3)cn12	-0.8%
COc1ccccc1NC(=O)Cn1c(SCC(=O)Nc2ccc(F)cc2)nc2ccccc21	3.3%
O=C(CSc1nc2c([nH]c3ccccc32)c(=O)n1-c1ccc(F)cc1)N1CCCCCC1	-3.1%
O=C(NCc1ccccc1)C(=O)NCC(c1ccco1)S(=O)(=O)c1cccs1 (stereo unspecified)	0.9%
O=S(=O)(c1ccc2c(c1)OCCO2)N1CCN(S(=O)(=O)c2ccco2)CC1	0.3%
COc1ccc(S(=O)(=O)N(Cc2nc(-c3cccc(C)c3)no2)C2CCCCC2)cc1	0.3%
COc1ccc(-c2cc(-c3ccccc3)nc3c2COc2ccccc2-3)cc1	2.1%
Cc1oc2ncn(CC(C)C)c(=O)c2c1C(=O)NCCCN1CCCCC1C (stereo unspecified)	-0.6%
CCN(CC)S(=O)(=O)c1ccc2nc(NC(=O)c3ccccc3OC)sc2c1	-0.8%
CC1(C)CC(=O)c2cc(C(=O)Nc3ccccc3Cl)c(=O)n(-c3ccc(Cl)cc3)c2C1	0.6%
CCn1c(=O)c2cc(C(=O)NC3CCCCCC3)sc2c2ccccc21	2.6%
Cc1ccc(CNC(=O)C2CCCN(c3ncnc4onc(-c5ccc(F)cc5)c34)C2)cc1 (stereo unspecified)	-0.9%
COc1ccc(N2CCN(C(=O)Cn3c(-c4cccs4)cc4ccccc43)CC2)cc1	-0.1%
Cc1ccc(C(=O)c2cn(Cc3cccc(C)c3)c3nc(C)ccc3c2=O)cc1	8.8%
CCn1c(=O)n(-c2ccc(F)c(Cl)c2)c(=O)c2c3c(sc21)CN(C(C)=O)CC3	0.7%
CN(C(=O)CSc1nc2ncccc2o1)c1ccc(F)cc1	-1.8%
C[C@@H]1CN(Cc2ccc3c(c2)CN(Cc2cccn2-c2cccnc2)CCO3)C[C@H](C)O1	-1.1%
O=C(NCCc1ccc(Cl)cc1)c1ccc2c(c1)nc1n2CCOC1	0.4%
CCOC(=O)c1c(C)oc2c(Cl)cc(NS(=O)(=O)c3ccc(Cl)c(C)c3)cc12	?
O=C(NCc1ccco1)c1ccc2c(c1)N(Cc1ccc(F)cc1)C(=O)c1ccccc1S2=O (stereo unspecified)	0.0%
Cc1cc(C)c(S(=O)(=O)N2CCN(Cc3ccc4c(c3)OCO4)CC2)cc1C	-0.4%
CCc1nn(-c2ccccc2)c2nc(-c3ccccc3OC)c3cc(OC)c(OC)cc3c12	0.4%
COc1ccc(CNC(=O)CC2N=C3c4ccccc4N=C(SCC(=O)Nc4ccc(N(C)C)cc4)N3C2=O)cc1 (stereo unspecified)	0.2%
COc1ccccc1C(=O)Nc1cccc(OCc2cc(=O)n3ccccc3n2)c1	-12.5%
O=[N+]([O-])c1ccc2c(c1)C=C/C2=C/c1ccccc1	1.5%
Cc1c(CNC2CCCCCC2)c(C(=O)O)c(C)n1Cc1cccc(Cl)c1	1.7%
Cc1cccc(-c2c3c(=O)n(C)c(=O)n(C)c3c3cnc4ccccc4n23)c1	9.4%
O=C(NCCc1ccccn1)C1CC12CCN(C(=O)c1c(F)cccc1Cl)CC2 (stereo unspecified)	0.8%
Cc1cccc(-c2nc(CCNC(=O)c3ccc(Br)o3)cs2)c1	2.3%

13 entries from above, in markdown:
| SMILES | PINK1 expr mod |
| --- | --- |
| CC1(C)CC(=O)c2cc(C(=O)Nc3ccccc3Cl)c(=O)n(-c3ccc(Cl)cc3)c2C1 | 0.6% |
| CCn1c(=O)c2cc(C(=O)NC3CCCCCC3)sc2c2ccccc21 | 2.6% |
| Cc1ccc(CNC(=O)C2CCCN(c3ncnc4onc(-c5ccc(F)cc5)c34)C2)cc1 (stereo unspecified) | -0.9% |
| COc1ccc(N2CCN(C(=O)Cn3c(-c4cccs4)cc4ccccc43)CC2)cc1 | -0.1% |
| Cc1ccc(C(=O)c2cn(Cc3cccc(C)c3)c3nc(C)ccc3c2=O)cc1 | 8.8% |
| CCn1c(=O)n(-c2ccc(F)c(Cl)c2)c(=O)c2c3c(sc21)CN(C(C)=O)CC3 | 0.7% |
| CN(C(=O)CSc1nc2ncccc2o1)c1ccc(F)cc1 | -1.8% |
| C[C@@H]1CN(Cc2ccc3c(c2)CN(Cc2cccn2-c2cccnc2)CCO3)C[C@H](C)O1 | -1.1% |
| O=C(NCCc1ccc(Cl)cc1)c1ccc2c(c1)nc1n2CCOC1 | 0.4% |
| CCOC(=O)c1c(C)oc2c(Cl)cc(NS(=O)(=O)c3ccc(Cl)c(C)c3)cc12 | ? |
| O=C(NCc1ccco1)c1ccc2c(c1)N(Cc1ccc(F)cc1)C(=O)c1ccccc1S2=O (stereo unspecified) | 0.0% |
| Cc1cc(C)c(S(=O)(=O)N2CCN(Cc3ccc4c(c3)OCO4)CC2)cc1C | -0.4% |
| CCc1nn(-c2ccccc2)c2nc(-c3ccccc3OC)c3cc(OC)c(OC)cc3c12 | 0.4% |

Continuation:
SMILES	PINK1 expr mod
CCN(C(=O)CSc1ncc2c(n1)-c1cc(Cl)ccc1N(Cc1ccccc1)S2(=O)=O)c1cccc(C)c1	-0.6%
COc1ccccc1CCNC(=O)C(=O)NCC(c1cccs1)S(=O)(=O)c1ccc(F)cc1 (stereo unspecified)	-0.3%
COc1cccc(CSc2nc(-c3ccccc3OC)nc3c2Cc2c(CO)cnc(C)c2O3)c1	0.4%
Cc1ccc(Cl)cc1NC(=O)CCC(=O)N1CC(C)Sc2ccccc21 (stereo unspecified)	1.0%
Cc1ccccc1CNC(=O)CN1C(=O)CSc2ccc(S(=O)(=O)N(C)C)cc21	0.1%
COc1ccc(CCNC(=O)c2ccc3c(c2)CCN3S(=O)(=O)c2ccccc2)cc1	-0.6%

Only part of the results is shown, so the mix of outcomes need not match the whole.
